POLH inh: blocks human DNA polymerase eta activity. recombinant Pol eta, fluorescent DNA replication assay. Potency, µM (doses to about 114 µM), inactives show at the top dose activity change, negative = inhibition, most hits filed as inhibitors. 390,000 compounds, 1.2% hits; also: % is scaled to controls: 0 for no effect and ±100 for the full control effect
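Fluorescent replication assay: 50 nM final substrate added after a 15 min room-temperature compound preincubation with 10 nM enzyme. Signal taken at 0 min and again at 10 min.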
Pol kappa inh: inhibitors of human DNA polymerase kappa | 400,000 compounds, 0.53% hits | Q9UBT6 | Potency, µM (top dose mostly 107 µM), for inactives: at the top dose activity, negative = inhibition, most hits filed as inhibitors | AID 588579 | purified Pol kappa, fluorescent DNA synthesis assay, 10 min; also: % is scaled to controls: 0 for no effect and ±100 for the full control effect
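Enzyme at 10 nM met test compounds for 15 min at room temperature. Substrate addition (50 nM final) began the reaction, which was monitored by fluorescence at 0 and 10 min.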
BLM inh: Bloom syndrome helicase (human) inhibition; P54132; AID 2528; Potency, µM (series often up to 56.1 µM), for inactives: top-dose activity change, negative = inhibition, most hits filed as inhibitors; recombinant BLM DNA unwinding, fluorescence dequenching; 350,000 compounds, 0.2% hits;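 also: plate controls were vehicle for no effect and no enzyme for full effect; nearly all actives have a fitted effect of over 35% in size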
Target sequence (P54132 whole entry, looked up): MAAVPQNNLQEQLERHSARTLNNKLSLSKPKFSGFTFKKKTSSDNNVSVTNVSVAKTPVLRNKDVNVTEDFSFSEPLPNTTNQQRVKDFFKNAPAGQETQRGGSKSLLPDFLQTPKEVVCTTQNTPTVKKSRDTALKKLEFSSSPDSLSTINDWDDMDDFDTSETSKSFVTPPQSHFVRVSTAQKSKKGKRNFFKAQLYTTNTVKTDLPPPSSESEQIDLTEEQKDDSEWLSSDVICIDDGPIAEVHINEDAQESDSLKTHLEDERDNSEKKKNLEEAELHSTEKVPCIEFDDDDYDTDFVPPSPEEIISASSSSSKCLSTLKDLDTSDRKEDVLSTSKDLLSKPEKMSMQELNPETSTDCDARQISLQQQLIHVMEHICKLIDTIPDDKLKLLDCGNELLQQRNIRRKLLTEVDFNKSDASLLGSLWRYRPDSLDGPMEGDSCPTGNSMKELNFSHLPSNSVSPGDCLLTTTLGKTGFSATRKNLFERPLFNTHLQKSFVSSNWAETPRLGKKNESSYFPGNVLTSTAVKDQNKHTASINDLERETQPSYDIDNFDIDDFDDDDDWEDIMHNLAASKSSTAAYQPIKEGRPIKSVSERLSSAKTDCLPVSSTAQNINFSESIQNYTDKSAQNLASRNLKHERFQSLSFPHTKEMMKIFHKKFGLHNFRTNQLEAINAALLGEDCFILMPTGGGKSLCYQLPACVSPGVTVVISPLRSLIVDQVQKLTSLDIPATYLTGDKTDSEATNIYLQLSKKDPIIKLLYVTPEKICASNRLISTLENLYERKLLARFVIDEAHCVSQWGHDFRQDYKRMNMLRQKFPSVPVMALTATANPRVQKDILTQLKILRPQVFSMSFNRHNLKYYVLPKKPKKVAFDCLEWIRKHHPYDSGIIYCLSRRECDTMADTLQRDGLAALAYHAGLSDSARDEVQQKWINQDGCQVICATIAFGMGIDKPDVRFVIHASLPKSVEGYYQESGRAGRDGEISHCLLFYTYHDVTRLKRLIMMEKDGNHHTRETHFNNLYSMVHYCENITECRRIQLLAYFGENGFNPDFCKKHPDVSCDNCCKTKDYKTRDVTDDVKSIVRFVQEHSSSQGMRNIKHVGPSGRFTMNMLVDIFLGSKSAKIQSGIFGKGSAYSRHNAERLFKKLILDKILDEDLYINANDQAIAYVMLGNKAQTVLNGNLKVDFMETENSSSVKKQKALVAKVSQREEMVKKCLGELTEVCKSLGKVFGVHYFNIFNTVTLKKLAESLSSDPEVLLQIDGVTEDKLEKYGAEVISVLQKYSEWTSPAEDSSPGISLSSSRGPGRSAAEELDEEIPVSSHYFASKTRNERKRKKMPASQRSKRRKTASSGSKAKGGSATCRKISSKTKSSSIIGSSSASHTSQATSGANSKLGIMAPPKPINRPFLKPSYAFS
APEX1 inh: inhibitors of human APE1 endonuclease; 350,000 compounds, 0.35% hits; P27695; AID 2517; Potency, µM (doses to about 65.8 µM), for inactives: top-dose activity change, negative = inhibition, usual class: inhibitors; recombinant APE1, TAMRA/BHQ-2 abasic DNA cleavage fluorescence;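 also: plate controls were vehicle for no effect and reference inhibitor for full effect; nearly all actives have a fitted effect of over 55% in size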
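Enzyme (0.75 nM final) and test compound are incubated 15 min at room temperature before adding 50 nM quenched THF abasic-site duplex. Cleavage dequenches TAMRA, followed at 525/598 nm over three reads one minute apart.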
G9a block: blocks human histone lysine methyltransferase G9a; Potency, µM (doses to about 102 µM), without a hit: top-dose activity, negative = inhibition, most hits filed as inhibitors; Q96KQ7; AID 504332; 350,000 compounds, 8.8% hits; G9a H3K9 monomethylation, AlphaScreen, 2 h; also: % is scaled to controls: 0 for no effect and ±100 for the full control effect; nearly all actives have a fitted effect of over 75% in size
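G9a (20 nM) preincubated 15 min RT with compounds, then 500 nM biotinylated H3K9 peptide and 20 uM SAM added; 2 h RT reaction. Monomethyl-H3K9 product detected by AlphaScreen with anti-H3K9me1 antibody, streptavidin donor and anti-rabbit IgG acceptor beads.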
POLI inh: blocks human DNA polymerase iota activity. Q9UNA4. Pol iota fluorescent replication assay, 10 min. Potency, µM (highest dose often 115 µM), for inactives: at the highest dose activity, negative = inhibition, usual class: inhibitors. 390,000 compounds, 1% hits. AID 588590
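Pol iota at 10 nM preincubated 15 min with compounds at room temperature; reaction started with fluorescent substrate, 50 nM final. Fluorescence read kinetically at 0 and 10 min; buffer-only wells as negative control.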
POLB inh: inhibitors of human DNA polymerase beta; 340,000 compounds, 1.3% hits; Potency, µM (series often up to 114 µM), without a hit: top-dose activity change, negative = inhibition, usual class: inhibitors; AID 485314; Pol beta primer extension/strand displacement, fluorescence kinetic; also: % is scaled to controls: 0 for no effect and ±100 for the full control effect
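Enzyme-only controls used 10 nM Pol beta; buffer lacking enzyme served as negative control. Compound preincubated 15 min, then 50 nM substrate added; 0 and 10 min reads at room temperature.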
Active calls of the source: *; ? = inconclusive; . = not tested or not shown; & = joins results of further samples; [ ] = another dose, or the depositor's remark. Calls follow the shape of the dose curve; as a rule, active = well fitted curve in the direction sought with a large enough effect; inconclusive = small, poorly fitted or top-dose-only effect, or another doubt; inactive = no such curve, though single readings can be large; an effect the other way counts as inactive or inconclusive. Potency is read from the fitted curve at half-maximal effect. The list is partial. The share of hits here may be higher or lower than overall.

item	compound	POLH inh	Pol kappa inh	BLM inh	APEX1 inh
1	CCC(c1nnc(SCC(=O)Nc2nnc(-c3ccccc3)o2)n1Cc1ccccc1)N(C)C (configuration not stated)	-2%	-3%	-1%	9%
2	CCOc1ccccc1NC(=S)Nc1ncccc1C	-3%	-1%	-8%	-2%
3	CCN(CC(=O)Nc1ccc(C)c(S(=O)(=O)N(C)C)c1)Cc1ccccc1	-26%	5%	-2%	24%
4	CCOC(=O)c1ccccc1NC(=O)COc1coc(CN2CCc3ccccc32)cc1=O	?	-22%	.	-25%
5	CC1Cc2ccccc2N1C(=O)CN1CCN(Cc2ccccc2)CC1 (configuration not stated)	-21%	1%[60.1 µM]	-2%	-14%
6	CN1CCN(C(=S)c2cn(Cc3ccc(Br)cc3)c3ccccc23)CC1	-15%	-15%	-12%	-4%
7	O=C(Nc1ncn[nH]1)c1ccc(S(=O)(=O)N2CCOCC2)cc1	-10%	-13%	-12%	2%
8	COc1ccc(N=C/C=C2/C=C(c3ccccc3)OC(C)(C)O2)cc1	-9%	7%	-3%	-1%
9	COc1ccc(C(=O)OCC(=O)Nc2nnc(-c3ccccc3)o2)cc1	1%	-12%	1%	-11%
10	COc1cc(S(=O)(=O)NCCCN2CCOCC2)ccc1-n1cnnn1	-13%	-22%	-4%	-2%
11	O=S(=O)(c1ccccc1)N1CCN(CC2CC3C=CC2C3)CC1 (configuration not stated)	-19%	-1%	1%	?
12	COc1ccc(NC(=S)Nc2cc(C)[nH]n2)cc1Cl	-9%	-8%	-2%	11%
13	CCOc1ccccc1NC(=O)C(CC)Sc1nc2ccncc2[nH]1 (configuration not stated)	-10%&-5%	-1%&-19%	1%&-1%	-12%
14	O=[N+]([O-])c1cc(/C=N/N2CCCCC2)ccc1Cl	-21%	-15%	-2%	-2%
15	Cc1ccccc1NC(=S)NCc1ccc2c(c1)OCO2	-24%	-6%	-2%	0%

item	G9a block	POLI inh	POLB inh
1	20%[59 µM]	8%	36%
2	10µM*	8%	3%[57.1 µM]
3	?	42%	-11%
4	40µM*	?	.
5	-14%	27%	40%
6	35µM*	-12%	-24%
7	-34%[12.7 µM]	-25%	-7%
8	45µM*	14%	-28%
9	.	7%	-9%
10	4µM*	29%	-1%
11	.	-12%	31%
12	1.3µM*	7%	0%
13	8.9µM*	29%&0%	-1%
14	45µM*	31%[activator]	2%
15	.	3%	7%

Further results.
item	compound	POLH inh	Pol kappa inh	BLM inh	APEX1 inh
16	COc1cccc(NC(=O)c2cc([N+](=O)[O-])ccc2NC(=O)CNCC2CCCO2)c1 (configuration not stated)	-12%	-13%	-4%	16%
17	Cn1c(-c2cccc([N+](=O)[O-])c2)cnc1NCc1cccc(F)c1	-13%	7%	-1%	18%
18	CCOc1ccccc1CN1CCN(S(C)(=O)=O)CC1	2%	-2%	3%	-2%
19	Cn1c(-c2ccc(Cl)cc2)cnc1NCc1cc2c(cc1[N+](=O)[O-])OCO2	-22%	-2%	-3%	-2%
20	CCOC(=O)c1sc(=S)n2c1[nH]c(=O)c1ccc(C(=O)OC)cc12	-4%	-7%	-2%	-5%
21	CCN(CC(=O)Nc1ccc(S(=O)(=O)N2CCCC2)cc1)CC(=O)Nc1cccc(OC)c1	-13%	-20%	-6%	1%
22	O=C(Nc1nnc2n1CCS2)c1ccccc1	-7%	-6%[60.1 µM]	-3%	.
23	CCOc1ccc(C(=O)OCC(=O)NCc2ccco2)cc1OCC	?	?	-20%	?
24	Cc1ccc(C(C)C)c(OCCCCCN2CCOCC2)c1	-27%	3%	-4%	-4%
25	Clc1ccccc1CN1CCN(CCCc2ccccc2)CC1	-15%	-10%	-7%	?
26	COc1ccc(C(=O)N2CCC(N3CCN(c4ccccc4)CC3)CC2)cc1	-3%	-17%	0%	?
27	COc1ccc(Nc2nc(NC(C)(C)C)nc(N3CCOCC3)n2)c(OC)c1	-2%	-7%[60.1 µM]	-9%	-2%
28	Cn1c(-c2ccc3c(c2)OCO3)cnc1NCc1cccc(Cl)c1	-16%	-6%	0%	-5%
29	COc1ccc(C(=O)N/N=C/c2c(CO)cnc(C)c2O)cc1	-8%	-12%	0%	-7%
30	COc1cccc(-c2nnc(SCC(=O)Nc3cc(C)on3)o2)c1	-14%	-5%	2%	1%

item	G9a block	POLI inh	POLB inh
16	?	13%	16%
17	25µM*	38%[activator]	-19%
18	-140%[59 µM]	?	4%
19	20µM*	14%	0%
20	7.9µM*	?	35%
21	32µM*	14%	2%
22	4.5µM*	-10%	-22%
23	50µM*	?	20µM*
24	22µM*	-1%	24%
25	13µM*	5%	-1%
26	2.5µM*	7%	-1%
27	40µM*	?	-2%
28	28µM*	-2%	31%
29	-34%	-9%	-17%
30	?	8%	16%

POLB inh, hit marks shown above
item	compound	POLH inh	Pol kappa inh	BLM inh	APEX1 inh
23	CCOc1ccc(C(=O)OCC(=O)NCc2ccco2)cc1OCC	?	?	-20%	?

item	G9a block	POLI inh	POLB inh
23	50µM*	?	20µM*

Next entries follow:
item	compound	POLH inh	Pol kappa inh	BLM inh	APEX1 inh
31	CC(=O)N1CCN(c2nc(C)nc3sc4c(c23)CCC(C)C4)CC1 (configuration not stated)	4%	-18%	-3%	-4%
32	CCCCC(=O)Nc1ccc2c3c(cccc13)CC2	-13%	-10%	-4%	0%
33	CCCN1C(=O)c2ccc(C(=O)NC3CCCCC3)cc2C1=O	-7%	-6%	0%	2%
34	Nc1nc(CN2CCN(c3ccccc3F)CC2)nc(Nc2ccccc2)n1	-14%	-8%	-2%	-1%
35	CC(=O)c1cccc(OCC(O)CN2CCN(S(=O)(=O)c3c(F)cccc3F)CC2)c1 (configuration not stated)	-2%	-1%	-4%	-3%
36	CN(C)CCCN(C(=O)c1cc(-c2cccs2)nc2ccccc12)c1nc2c(F)cccc2s1	-18%	0%	-2%	-11%
37	CC1CN(CCCOc2ccccc2-c2ccccc2)CC(C)O1 (configuration not stated)	-5%	-28%	-3%	4%
38	Cc1ccc(S(=O)(=O)CCC(=O)Nc2nnc(-c3ccccc3S(C)(=O)=O)o2)cc1	-13%	-1%	.	24%
39	O=C(CNCC1CCCCC1)Nc1cccc(S(=O)(=O)N2CCOCC2)c1	-9%	13%	-1%	13%
40	CN(CCOc1ccc(Br)cc1)CC(O)c1ccccc1 (configuration not stated)	-15%	15%	1%	-15%
41	CCOc1ccc(OCC)c(NC(=O)CN2CCN(c3cc(C)ccc3C)CC2)c1	-17%	-10%	-9%	-1%
42	CCn1c(SCCN2CCCCC2)nnc1-c1ccc(S(=O)(=O)N2CCOCC2)cc1	-10%	3%	2%	2%
43	Cc1ccc(CN2CCN(c3ccccn3)CC2)s1	-7%	-4%	-5%	-4%
44	Cc1cc(NC(=O)CN2CCCCCCC2)no1	-2%	-12%[60.1 µM]	-2%	-3%
45	CN(C)c1nc(N)nc(/C(C#N)=C/C2CC3C=CC2C3)n1 (configuration not stated)	?	2%	3%	-5%

item	G9a block	POLI inh	POLB inh
31	-4%	21%	2%
32	6%	11%	21%
33	-8%	9%	-11%
34	40µM*	-1%	79%
35	-32%[2.33 µM]	-4%	10%
36	.	12%	22%
37	8.9µM*	41%[activator]	?
38	?	6%	.
39	18µM*	26%	14%
40	13µM*	?	-8%
41	?	29%	3%
42	11µM*	?	1%
43	10µM*	-21%	-2%
44	?	9%	-6%
45	?	?	13%

The list continues.
item	compound	POLH inh	Pol kappa inh	BLM inh	APEX1 inh
46	CN1CCN(CC(O)Cn2c3ccccc3c3ccccc32)CC1 (configuration not stated)	-4%	-3%	-9%	2%
47	COC(=O)c1ccc(OCC(O)CN2CCN(C(=O)c3ccco3)CC2)cc1 (configuration not stated)	-1%	2%	-3%	17%
48	Cc1ccc(-n2c(SCC(=O)Nc3ccc4c(c3)OCO4)nnc2-c2ccoc2C)cc1	-11%	-15%	-14%	-2%
49	O=c1c2[nH]c3ccc(Br)cc3c2ncn1CCCn1ccnc1	-4%	-4%	-2%	2%
50	CCN1C(=O)CSc2ccc(C(=O)NC3CCCCC3)cc21	-6%	-3%	-2%	-1%
51	CC(C)(c1ccccc1)c1ccc(OCCN2CCOCC2)cc1	-10%	-14%	-1%	-15%
52	CCN(CC)S(=O)(=O)c1ccc(C)c(NC(=O)CN2CCN(C)CC2)c1	-19%	-7%	-3%	14%
53	COc1cc([N+](=O)[O-])c(OC)cc1SCc1n[nH]c(=S)n1-c1ccc(C)cc1	-10%	-8%	-3%	1%
54	COc1ccccc1COCC(O)CN1CCN(S(=O)(=O)c2cccc(F)c2)CC1 (configuration not stated)	-4%	0%	.	-16%
55	Cn1c(-c2ccc(F)cc2)cnc1NCc1cccc([N+](=O)[O-])c1	-4%	-10%	-10%	4%
56	CCCS(=O)(=O)N1CCN(Cc2ccc3c(c2)c2ccccc2n3CC)CC1	-25%	-12%	-8%	4%
57	COCCNC(=O)CN1CCCCCC1	-18%	-4%	-4%	6%

item	G9a block	POLI inh	POLB inh
46	1.8µM*	13%	18%
47	28µM*	1%	-1%
48	?	6%	-3%
49	?	-9%	?
50	-5%	13%	43%
51	-44%[2.33 µM]	5%	0%
52	.	1%	33%
53	?	-9%[58.9 µM]	14%
54	?	25%	.
55	?	-1%	?
56	?	2%	-26%
57	.	27%	-3%

Exported with one line to a screen: entries from further up.
[46] CN1CCN(CC(O)Cn2c3ccccc3c3ccccc32)CC1 (configuration not stated)
[47] COC(=O)c1ccc(OCC(O)CN2CCN(C(=O)c3ccco3)CC2)cc1 (configuration not stated)
[48] Cc1ccc(-n2c(SCC(=O)Nc3ccc4c(c3)OCO4)nnc2-c2ccoc2C)cc1
[49] O=c1c2[nH]c3ccc(Br)cc3c2ncn1CCCn1ccnc1
[50] CCN1C(=O)CSc2ccc(C(=O)NC3CCCCC3)cc21
[51] CC(C)(c1ccccc1)c1ccc(OCCN2CCOCC2)cc1

entry no.,46,47,48,49,50,51
POLH inh,-4%,-1%,-11%,-4%,-6%,-10%
Pol kappa inh,-3%,2%,-15%,-4%,-3%,-14%
BLM inh,-9%,-3%,-14%,-2%,-2%,-1%
APEX1 inh,2%,17%,-2%,2%,-1%,-15%
G9a block,1.8µM*,28µM*,?,?,-5%,-44%[2.33 µM]
POLI inh,13%,1%,6%,-9%,13%,5%
POLB inh,18%,-1%,-3%,?,43%,0%

Entries from the list above that have a thiophene ring, fused or not (three):
item	compound	POLH inh	Pol kappa inh	BLM inh	APEX1 inh
31	CC(=O)N1CCN(c2nc(C)nc3sc4c(c23)CCC(C)C4)CC1 (configuration not stated)	4%	-18%	-3%	-4%
36	CN(C)CCCN(C(=O)c1cc(-c2cccs2)nc2ccccc12)c1nc2c(F)cccc2s1	-18%	0%	-2%	-11%
43	Cc1ccc(CN2CCN(c3ccccn3)CC2)s1	-7%	-4%	-5%	-4%

item	G9a block	POLI inh	POLB inh
31	-4%	21%	2%
36	.	12%	22%
43	10µM*	-21%	-2%

Screening data as filed in PubChem.
